Bioassay records (PubChem BioAssay)
ClpP mod – qHTS Assay for Activators of ClpP | purified B. subtilis ClpP, FRET peptide cleavage, 20 min | ATP-dependent Clp protease proteolytic subunit (Bacillus subtilis (strain 168)), P80244 | Potency, µM (doses to about 57.5 µM), without a hit: at the top dose activity change, negative = active | 340,000 tested, 1.9% active | AID 651965, 2013; active = well fitted falling curve with a large enough effect; inconclusive = small, poorly fitted or top-dose-only effect; inactive = no such curve, though single readings can be large or run the other way; note: potency is the fitted concentration of half-maximal effect; the source files actives as falling curves though it sought activators and does not explain the sign; nearly all actives have a fitted effect of over 65% in size; many hits overshoot -100%
Target sequence (P80244 whole entry, looked up): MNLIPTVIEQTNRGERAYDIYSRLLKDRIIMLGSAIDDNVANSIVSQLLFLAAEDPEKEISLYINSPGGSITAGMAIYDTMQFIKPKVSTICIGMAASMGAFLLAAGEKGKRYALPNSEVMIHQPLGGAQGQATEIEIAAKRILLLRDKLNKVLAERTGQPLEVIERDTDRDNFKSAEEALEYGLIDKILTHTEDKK
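FRET quenching reversal measured ClpP activation: 10 microg/mL B. subtilis ClpP at pH 8 with the FRET-FV decapeptide, read at 430 nm after 320 nm excitation. The 20-min minus 0-min signal was scaled between DMSO/no-enzyme wells and ADEP (5.8 microM final).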
TRPML1 blocker – human mucolipin-1 channel inhibition; Q9GZU1; TRPML1-inducible cells, Ca2+ dye fluorescence, FDSS; hits give low values; inhibition of EC80 agonist-evoked calcium signal; activity change, negative = inhibition, % (concentration not given with the values); 390,000 tested, 0.02% active; AID 624415; in the data active means activity change below about -50%; inconclusive means about -30% to -50%; inactive means above about -30%;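 note: stimulus is agonist 54-4 at its EC80 concentration; % is set by controls: 0 for no effect and ±100 for the full control effect; compound concentration not given in the record; the text of the record puts the active cut at -80%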
Target sequence (Q9GZU1 whole entry, looked up): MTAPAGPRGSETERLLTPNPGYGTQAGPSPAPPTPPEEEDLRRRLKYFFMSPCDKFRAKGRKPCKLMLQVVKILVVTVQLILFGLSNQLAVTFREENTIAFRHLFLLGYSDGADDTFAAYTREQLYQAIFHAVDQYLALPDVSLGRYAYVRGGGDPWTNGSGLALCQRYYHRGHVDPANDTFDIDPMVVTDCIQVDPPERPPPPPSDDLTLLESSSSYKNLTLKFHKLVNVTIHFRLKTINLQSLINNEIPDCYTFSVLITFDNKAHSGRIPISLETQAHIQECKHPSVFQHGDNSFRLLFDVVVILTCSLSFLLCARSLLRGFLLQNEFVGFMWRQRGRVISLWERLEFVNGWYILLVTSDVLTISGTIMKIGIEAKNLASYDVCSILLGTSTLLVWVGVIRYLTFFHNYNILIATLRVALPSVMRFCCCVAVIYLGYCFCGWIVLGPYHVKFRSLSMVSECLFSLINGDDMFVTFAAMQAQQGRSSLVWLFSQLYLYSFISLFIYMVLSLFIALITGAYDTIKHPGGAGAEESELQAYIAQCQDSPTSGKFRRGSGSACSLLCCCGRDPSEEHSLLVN
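Calcium fluorescence in TRPML1-DL cells induced overnight with Tet: a 110 s read after compound pin addition, then a 110 s antagonist read after challenge with 54-4 at 4 uM final (EC80).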
TRPML1 agonist – human mucolipin-1 channel agonism | TRPML1-expressing cells, Ca2+ dye fluorescence, FDSS; host cell line not named in the record; reference of the full effect not given here | 410,000 tested, 0.12% active | activation, % (concentration not given with the values) | Q9GZU1; in the data active = activation above about 50%; inconclusive = about 30% to 50%; inactive = below about 30%; note: 0% is about no effect; the text of the record puts the active cut at 80%
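Agonist activity was taken from a 110 s kinetic Ca2+ dye read on the FDSS after pinning compounds onto TRPML1-DL cells. The cells were seeded at 1,500/well with Tet inducer, incubated about 16 h, then dye-loaded at room temperature.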
gsp agonist – agonists of gsp mutant (McCune-Albright syndrome) | gsp mutant cells, cAMP HTRF, 30 min; control for the full effect not named in the record | 340,000 tested, 0.13% active | AID 624287 | Potency, µM (series often up to 76.9 µM), inactives show top-dose activation (cAMP increase), actives largely listed as activators; active = well fitted activation curve with a large enough effect; inconclusive = small, poorly fitted or top-dose-only effect, or another doubt; inactive = no such curve, though single readings can be large or run the other way; cell line not stated here;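 note: phosphodiesterase inhibitor Ro 20-1724 added with compounds to block cAMP breakdown; potency is the fitted concentration of half-maximal effect; nearly all actives have a fitted effect of over 60% in size; about a fifth of the inactives were tested at one dose only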
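Cells in DMEM/10% FBS with G418 were pretreated with compounds in DMSO plus […] (300 uM stock) for 30 min at 37C. cAMP was measured by HTRF (cAMP-d2 plus anti-cAMP antibody-K) after 30 min at room temperature.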
gsp antagonist – gsp mutant antagonism; Potency, µM (highest dose often 76.9 µM), without a hit: top-dose activity change, negative = inhibition, usual class: inhibitors; 340,000 tested, 0.4% active; AID 624288; gsp-mutant cells, cAMP HTRF, 30 min; control for the full effect not named in the record; active = falling curve of any shape with a large fitted effect; inconclusive = falling curve, mostly with a smaller effect; inactive = flat or rising curve; cell line not stated here;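 note: intracellular cAMP measured with PDE inhibitor Ro 20-1724 present during compound exposure; potency is the fitted concentration of half-maximal effect; % is set by controls: 0 for no effect and ±100 for the full control effect; nearly all actives have a fitted effect of over 65% in size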
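HTRF cAMP read-out (cAMP-d2 plus anti-cAMP antibody-K in lysis buffer, 30 min RT). Before lysis, cells are exposed to compounds with […] for 30 min at 37C in DPBS containing Ca/Mg, BSA and Tween 20.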
Menin-MLL FL inh – displaces fluorescein MLL peptide from human menin; AID 1766; Fluorescence polarization, fluorescein-MLL peptide displacement from menin; FP activity change, % at 61.4 µM; 290,000 tested, under 10 active; inconclusive = falling polarisation curve, or a change in total fluorescence; inactive = total fluorescence flat and polarisation flat or rising; no compound was filed as active; the % refers to the polarisation; negative = inhibition;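 note: % of control where 0% means no effect; inhibitors lower the polarisation; unlabelled MLL peptide was the positive control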
The depositor's hits bear a star; ? = inconclusive; . = no result given; [ ] = another dose, or the depositor's remark. No enrichment for hits (roughly 2.1% active in at least one column).

SMILES	ClpP mod	TRPML1 blocker	TRPML1 agonist	gsp agonist	gsp antagonist	Menin-MLL FL inh
O=C(COC(=O)c1cccnc1Cl)NC1CCCc2ccccc21 (centres undefined)	0.2%	9	-0.6	2%	3%	.
COc1cc(C=O)ccc1OCCCCOc1ccccc1[N+](=O)[O-]	-0.5%	-8	2.1	25%	4%	.
CCc1ccc(NC(=O)C2CCN(S(=O)(=O)c3c(C)noc3/C=C/N(C)C)CC2)cc1	-4.0%	-7	-0.2	-1%	-9%	.
COC(=O)C1CCCCN1C(=O)CCc1nnc(CCc2c[nH]c3ccccc23)o1 (centres undefined)	-2.1%	-4	0.7	-48%[inhibitor]	-9%	3.3
C=CCN(CC=C)S(=O)(=O)c1ccc(NC(=S)NC(=O)/C=C/c2ccc(C)cc2)cc1	0.8%	24	-0.1	-7%	-14%	3.6
CC(C)(C)C(=O)OCc1cn(-c2ccc(Cl)cc2)nn1	-0.9%	-9	-1.4	19%	6%	0.5
CC1Sc2ccc(C(=O)Nc3ccc(S(=O)(=O)N(C)C)cc3)cc2NC1=O (centres undefined)	.	14	0.2	-2%[15.4 µM]	-11%	.
COc1ccc2c(c1)OC[C@H]1[C@H]2N2C(=O)CN(Cc3ccc(C)cc3)C(=O)[C@@]2(C)[C@H]1c1ccccc1	-0.5%	1	1.1	-11%	-22%	.
COc1ccc(Cn2cnc3sccc3c2=O)cc1	-0.2%	4	1.5	-5%	4%	3.6
COc1ccc(-c2cc(C(=O)Oc3ccc(Cl)cc3)c3ccccc3n2)cc1	4.5%	39	1.0	.	.	.
COc1ccc(-c2cc(=O)oc3cc(OCC(=O)NCC(O)c4ccccc4)ccc23)cc1 (centres undefined)	-8.8%	.	.	.	-5%	3.4
CCOC(=O)N1CCN(C(=O)CCSCCc2ccncc2)CC1	0.8%	5	4.0	3%	-18%	4.1
CCCCOC(=O)c1ccc(NC(=O)CSc2nc3c(c(=O)[nH]2)CCCC3)cc1	-0.3%	-24	1.7	.	.	.
Cc1nn(CC(=O)NCc2cccs2)c(=O)c2nn(-c3ccccc3)c(C)c12	-2.7%	-6	-0.6	?	-8%	0.2
NC(=NCCc1c[nH]c2ccccc12)NS(=O)(=O)c1ccc(F)cc1	-3.4%	-14	-0.1	-15%	-3%	3.2
O=C(c1ccc([N+](=O)[O-])o1)N1CCc2ccccc2C1	-2.3%	9	-0.3	20%	3%	0.6
Cc1ccc(C(=O)NCc2ccc3c(c2)CCO3)cc1C	.	-10	-0.8	-7%[15.4 µM]	0%	4.3
O=c1c2sc3ccccc3c2n(Cc2ccc(Cl)cc2)c(=O)n1Cc1ccco1	?	0	-0.6	.	.	.
COc1ccc(N(CC(=O)Nc2c(C)n(C)n(-c3ccccc3)c2=O)S(=O)(=O)c2ccc(F)cc2)cc1	-4.9%	-10	1.2	?	2%	1.4
Cc1ccc(S(=O)(=O)N2CCOCC2)cc1NC(=O)COC(=O)CCC(=O)c1cccs1	-2.1%	0	0.4	8%	-20%	0.1
CC(=O)Nc1ccc(NC(=O)CN2C(=O)CC(c3ccco3)Sc3ccccc32)cc1 (centres undefined)	-1.4%	-10	1.0	.	.	.
CC(=O)N1CCN(S(=O)(=O)c2cccc(C(=O)NC3CCCC(C)C3C)c2)CC1 (centres undefined)	-2.5%	-18	-0.1	-48%[inhibitor]	.	.
COc1ccc(C(=O)Nc2cccc(N(C)S(C)(=O)=O)c2)cc1OC	-0.6%	-12	-0.4	-27%	1%	6.0
CC(=O)c1ccc(N2CCC(c3cc(-c4ccc(Cl)cc4)n[nH]3)CC2)c([N+](=O)[O-])c1	0.8%	-5	-0.4	1%	-14%	1.0
Cc1cccc(NC(=O)C(=O)NCC(c2cccnc2)N2CCc3ccccc32)c1C (centres undefined)	0.1%	-6	0.2	.	.	.
O=C(Nc1ccnn1C1CCN(C/C=C/c2ccccc2)CC1)c1ccccc1Cl	-23%	41	0.6	-6%	12%	.
COc1ccc(NC(=O)CCc2nnc3n(Cc4ccc(C)cc4)c(=O)c4ccccc4n23)cc1	-2.0%	-25	1.5	.	.	.
CCN(CC)c1cc2nonc2c2nonc12	0.1%	28	-0.1	0%	2%	-0.7
C/C(CS(=O)(=O)c1ccc(Cl)c(Cl)c1)=N/NC(N)=S	.	-3	0.7	-6%[15.4 µM]	12%	-1.0
CN(CC(=O)Nc1nc2ccc(F)cc2s1)S(=O)(=O)c1ccc(Cl)cc1	-2.3%	18	0.8	-49%[inhibitor]	-20%	2.6
CC1CC(C)CN(C(=O)c2cc3c(s2)CCC3)C1 (centres undefined)	-0.4%	-7	0.4	-34%[inhibitor]	-20%	0.7
Nc1nc(SCC(=O)Nc2cc(C(F)(F)F)ccc2N2CCOCC2)n[nH]1	.	0	0.7	12%[15.4 µM]	1%	-3.1
CCOC(CCc1c(C)nc(NC(C)=O)[nH]c1=O)OCC	0.5%	12	0.4	-5%	-11%	3.6
CSCC[C@H](NC(=O)Nc1ccccc1C)C(=O)O	.	?	0.3	15%[15.4 µM]	16%	1.5
CS(=O)(=O)c1ccc(NS(=O)(=O)c2ccc(Cl)c(C(=O)NC3=NCCS3)c2)cc1	-3.2%	-10	1.0	-16%	8%	.
CCOC(=O)c1c(C)[nH]c(CCC(=O)NCc2ccc(OC)cc2OC)c1C	0.8%	4	5.7	.	.	.
Cc1nc2nc3c(c(=O)n2[nH]1)CCC3	-1.1%	4	-1.1	-11%	11%	2.7
CCN(CC)C(=O)C1CCCN(Cc2cccc(F)c2)C1 (centres undefined)	1.6%	2	-0.8	0%	5%	-3.3
COC(=O)[C@@]12CCCCN1[C@H](c1ccc(-c3ccccc3)cc1)[C@H]1C(=O)N(C)C(=O)[C@H]12	-1.2%	17	1.1	-46%	3%	.
COc1ccc(CN2CCCC(C(=O)N3CCCCC3)C2)cc1OC (centres undefined)	0.7%	10	0.9	18%	5%	0.2
Cc1cccc(NC(=O)Nc2ccc3c(c2)OCO3)n1	0.8%	4	-1.1	2%	-14%	-0.1
CCCCC(=O)OCC(=O)N1N=C(c2c[nH]c3ccccc23)C(O)C1c1ccc(OC)cc1 (centres undefined)	4.1%	.	.	3%	-3%	1.5
Fc1ccc(CN2CCc3nc(N4CCN(c5ccccc5F)CC4)ncc3C2)c(F)c1	-4.4%	-4	-0.2	.	.	.
NC(N)=N/N=C/c1cccc(Cl)c1Cl	.	-4	3.6	10%[15.4 µM]	.	-1.9
CC(C)NC(=O)CC(=O)N/N=C\c1ccccc1C(=O)O	.	4	0.2	5%[15.4 µM]	-6%	-0.6
O=C(NS(=O)(=O)c1ccc2c(c1)OCCO2)c1ccccc1	0.6%	13	2.1	21%	0%	-0.9
C/C(=N/NC(=O)c1ccc2c(c1)OCO2)c1cccc(NC(=O)C(C)(C)C)c1	1.4%	7	0.5	-29%	-10%	-1.4
COc1ccc(S(=O)(=O)CCc2nnc(NC(C)=O)s2)cc1	.	9	-0.6	5%[15.4 µM]	-7%	-0.4
O=C(O)c1ccc(N/N=C/c2ccc3c(c2)OCO3)cc1	.	13	-0.2	-7%	?	0.9
Cc1ccc2nc3sc(C(=O)N4CCCc5ccccc54)c(N)c3cc2c1	-1.9%	-16	9.4	4%	-18%	?
O=C(Nc1cccc(Cl)c1)c1cc(S(=O)(=O)N2CCC3(CC2)OCCO3)ccc1F	-8.1%	16	0.9	.	.	.
COc1ccc(/C=N/N=C/c2ccc(OC)c(OC)c2)cc1OC	-1.6%	-26	-0.2	?	-2%	5.6
Cc1cc(Br)ccc1NC(=O)CN(C)C(=O)CN1C(=O)NC2(CCCC2)C1=O	2.1%	-3	0.3	-14%[15.4 µM]	10%	.
CCN(Cc1ccc(NC(C)=O)cc1)CC1CCCN(CCc2cccc(OC)c2)C1 (centres undefined)	-4.4%	18	0.2	8%	4%	0.1
COCCC(=O)N1CCCC(C(=O)c2ccc3c4c(cccc24)CC3)C1 (centres undefined)	-0.5%	11	-1.3	-23%	-9%	-2.5
CC(=O)c1ccc(Sc2ccc(C(C)=O)cc2)cc1	-1.4%	-20	0.2	5%	-8%	-2.2
CCOC(=O)c1cc(-c2ccc(C)cc2)n(CCC(=O)NCCCOC)c1C	0.7%	3	0.8	6%	-14%	1.3
Nc1ccccc1N1C(=O)c2cccc3cccc(c23)C1=O	-0.8%	38	2.4	-5%	10%	.
Cc1ccnc(NC(=O)c2cccc(NC(=O)c3ccc(Cl)c(Cl)c3)c2)c1	.	8	0.1	13%	5%	.
CCSc1nn(CC(=O)Nc2cccc(CC)c2)c(N)c1S(=O)(=O)c1ccccc1	-2.5%	15	5.0	.	.	.
Remaining list, next part:
SMILES	ClpP mod	TRPML1 blocker	TRPML1 agonist	gsp agonist	gsp antagonist	Menin-MLL FL inh
CCn1c(=O)n(-c2cccc(Cl)c2)c(=O)c2sc3ccccc3c21	4.4%	5	-0.7	.	.	.
O=C(NNC(=O)c1ccc(Cn2cccn2)o1)NC12CC3CC(CC(C3)C1)C2	0.4%	13	1.1	?	10%	.
COc1ccc(-c2nnn(CC(=O)N(c3cccc(O)c3)C(C)C(=O)NC3CCCC3)n2)cc1OC (centres undefined)	.	17	1.5	11%[15.4 µM]	-23%	-7.8
O=C(O)CCC1(C(=O)O)CCC(=O)c2ccccc21 (centres undefined)	2.2%	7	0.0	-8%[15.4 µM]	5%	.
Cc1ccc2onc(CNC(=O)NCc3cccc(Cl)c3)c2c1	-0.8%	-19	0.9	.	.	.
O=C(COc1ccc(Br)cc1CO)N1CCCc2ccccc21	.	12	3.0	-34%[inhibitor]	-5%	-2.9
Cc1ccc(S(=O)(=O)N2CCN(C(=O)CSc3nncs3)CC2)cc1	.	-6	1.2	-2%[15.4 µM]	2%	1.7
COc1ccc(C=NNC(=O)CCCC(=O)NN=Cc2ccc(OC)c(OC)c2)cc1OC	-7.0%	-8	0.4	-10%	3%	.
CCOC(=O)N1CCC(NC(=O)c2ccc3c(c2)N=C(C)c2ccccc2S3)CC1	-3.8%	12	0.6	4%	-8%	-0.9
COC(=O)c1ccc(NC(=O)Nc2ccc(OC)c(OC)c2)cc1	?	26	-0.4	-7%	3%	1.7
CC(NC(=O)C(=S)N1CCN(C)CC1)c1ccccc1 (centres undefined)	.	-3	-0.6	16%	10%	-2.9
COc1ccc(C)cc1NC(=O)CCN1CCN(c2ccccc2F)CC1	0.8%	0	0.1	-2%	-1%	-3.7
COC(=O)[C@@H](NC(=O)Nc1ccc(S(N)(=O)=O)cc1)C(C)C	1.1%	6	0.4	-20%	5%	-3.2
O=C(OCc1ccccc1)N1CCC2CC1c1ccc(Cl)cc12 (centres undefined)	-3.6%	-15	-0.7	-15%	.	.
